Screens (PubChem BioAssay)
MenB inh: inhibitors of Mycobacterium tuberculosis MenB enzyme; AID 540299; inhibition, %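 (about 12 µg/mL by stock and volumes)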; MenB enzyme assay, absorbance read-out; some hits fall short of the stated cut; 0.43% of 100,000 active;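 active means mean of two replicates above 30%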;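 further: 0% = no compound and 100% = wells with inactive enzyme; the first replicate is given; strong numbers were not always called active; inactives centre near -10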
Target sequence (P9WNP5 whole entry, looked up): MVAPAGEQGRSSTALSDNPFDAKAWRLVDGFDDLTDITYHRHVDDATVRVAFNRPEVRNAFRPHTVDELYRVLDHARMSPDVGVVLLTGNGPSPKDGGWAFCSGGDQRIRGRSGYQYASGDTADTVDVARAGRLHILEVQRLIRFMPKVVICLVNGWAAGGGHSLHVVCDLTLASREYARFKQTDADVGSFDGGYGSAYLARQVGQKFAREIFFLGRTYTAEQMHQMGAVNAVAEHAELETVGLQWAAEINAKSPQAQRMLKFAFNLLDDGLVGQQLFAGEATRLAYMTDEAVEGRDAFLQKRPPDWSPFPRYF
Polio RdRp inh: poliovirus RNA polymerase inhibition. % elongation, % (compound at 16.7 µg/mL). poliovirus polymerase elongation, fluorescence polarization; active compounds read low. 0.66% of 150,000 active. AID 588519. P03300; in the data active means % elongation below about 90%; further: some results filed as inactive read as strong as hits
Target sequence (P03300 1749-2209 limits assumed): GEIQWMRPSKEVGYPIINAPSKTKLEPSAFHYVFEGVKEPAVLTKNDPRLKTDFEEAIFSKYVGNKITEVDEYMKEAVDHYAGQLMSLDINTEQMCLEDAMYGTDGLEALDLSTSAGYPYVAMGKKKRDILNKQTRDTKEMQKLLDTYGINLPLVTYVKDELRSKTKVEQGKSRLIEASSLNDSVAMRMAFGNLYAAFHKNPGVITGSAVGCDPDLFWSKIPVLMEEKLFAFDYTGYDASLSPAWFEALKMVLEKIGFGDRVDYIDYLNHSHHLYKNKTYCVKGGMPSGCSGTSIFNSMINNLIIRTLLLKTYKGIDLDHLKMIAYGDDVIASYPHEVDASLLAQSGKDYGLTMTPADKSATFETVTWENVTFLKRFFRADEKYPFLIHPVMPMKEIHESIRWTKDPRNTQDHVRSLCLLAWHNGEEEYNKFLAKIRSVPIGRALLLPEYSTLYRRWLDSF
MbtI inh: blocks the Mycobacterium tuberculosis siderophore enzyme MbtI | purified MbtI enzyme, fluorescence intensity read-out | inhibition, %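 (about 17 µg/mL by stock and volumes)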 | 0.89% of 100,000 active | AID 493033;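 active means above 50% in both replicates, above 80% if mildly self-fluorescent; inactive means the rest, strongly fluorescent compounds included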;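 further: 0% = mean of negative and 100% = mean of positive controls; one replicate is shown; some compounds called inactive have numbers as strong as hits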
Polio RdRp inh intensity: second read-out of Polio RdRp inh, no call of its own (marks repeat the call); % elongation; measured here: total intensity read-out; formula for this scale not given here;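 total fluorescence in place of polarization; lower means less elongation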
* hit, by the source's call; i = inactive; / = not tested or not shown.

SMILES | MenB inh | Polio RdRp inh | Polio RdRp inh intensity | MbtI inh
COC(=O)c1sccc1NC(=O)c1ccc(Cl)s1 | 5 | 102 | 103 | -5
CC(Oc1ccc2c(-c3ccccc3)cc(=O)oc2c1)C(=O)O (configuration not stated) | 2 | 100 | 99 | 0
CC(=O)NC(=O)c1cc2c(ccc3ccccc32)oc1=Nc1ccc(C)cc1 | 9 | 102 | 102 | 1
CCN(CC)CCn1c(=N)n(CC(O)c2ccc(Cl)c(Cl)c2)c2ccccc21 (configuration not stated) | 8 | 101 | 104 | 6
O=C(O)c1cccc(-c2ccc(/C=N\n3cnnc3)o2)c1 | -17 | 102 | 111 | /
CCN(CC)CC(O)CN1c2ccccc2Sc2ccccc21 (configuration not stated) | 6 | 102 | 101 | -2
Oc1ccc2oc3c(c2c1/C=N/N1CCCCC1)CCCC3 | -1 | 102 | 107 | -18
Cc1cccc(NC(=O)CSC2=NS(=O)(=O)c3ccccc32)c1C | -53 | 100 | 96 | 31
Cc1cccc(C(CC(=O)N2CCN(c3ccccc3F)CC2)n2cccc2)c1 (configuration not stated) | -12 | 101 | 102 | 7
O=C(Cn1c(SCc2ccc(F)cc2)nc2cccnc21)N1CCCC1 | -16 | 105 | 101 | 134
COC(=O)c1sccc1-c1ccc(C2C3=C(CCCC3=O)NC3=C2C(=O)CCC3)o1 | 22 | 102 | 102 | 3
C=CCn1c(=O)sc2cc(Br)ccc21 | -2 | 100 | 99 | 6
COc1ccc(OC)c2sc(N3CCN(C(=O)C(C)C)CC3)nc12 | -3 | 102 | 103 | -2
O=C(Oc1ccccc1Cl)C1COc2ccccc2O1 (configuration not stated) | -2 | 102 | 102 | -8
Cn1nnnc1Sc1nc(-c2ccccc2)nc2ccccc12 | -31 | 102 | 107 | -8
Cc1cc(=O)oc2cc(NC(=S)NCc3cc(C)n(C)n3)ccc12 | -27 | 102 | 99 | 59
Cc1cc(C(=O)O)c(Cl)nc1C | -21 | 102 | 101 | -1
N#Cc1c(Nc2ccc(Cl)cc2)n[nH]c1N | 14 | 97 | 100 | -4
CN(C)CC(C)(C)NS(=O)(=O)c1ccccc1 | / | 99 | 94 | -15
Nc1nc(N)nc(SCC(=O)N2CCCC2)n1 | 2 | 102 | 107 | 0
CCCn1c(Nc2ccccc2)nc2ccccc21 | -9 | 99 | 104 | -55
Cc1cc2c(cc3c(SCC(=O)NCc4ccco4)nncn32)o1 | 2 | 98 | 101 | 24
COCCNS(=O)(=O)c1c[nH]c(C(=O)OC)c1 | 2 | 99 | 100 | -15
CCc1ccccc1NS(=O)(=O)c1ccc2[nH]cc(C(=O)NC(C)CC)c(=O)c2c1 (configuration not stated) | -16 | 100 | 100 | -2
Cc1cc(F)ccc1S(=O)(=O)Nc1ccccc1C(=O)N1CCCCC1 | -16 | 106 | 109 | -20

Another view of part of the listing above:
The line under a structure holds: MenB inh | Polio RdRp inh | Polio RdRp inh intensity | MbtI inh
COC(=O)c1sccc1NC(=O)c1ccc(Cl)s1
  5 | 102 | 103 | -5
CC(Oc1ccc2c(-c3ccccc3)cc(=O)oc2c1)C(=O)O (configuration not stated)
  2 | 100 | 99 | 0
CC(=O)NC(=O)c1cc2c(ccc3ccccc32)oc1=Nc1ccc(C)cc1
  9 | 102 | 102 | 1
CCN(CC)CCn1c(=N)n(CC(O)c2ccc(Cl)c(Cl)c2)c2ccccc21 (configuration not stated)
  8 | 101 | 104 | 6
O=C(O)c1cccc(-c2ccc(/C=N\n3cnnc3)o2)c1
  -17 | 102 | 111 | /
CCN(CC)CC(O)CN1c2ccccc2Sc2ccccc21 (configuration not stated)
  6 | 102 | 101 | -2
Oc1ccc2oc3c(c2c1/C=N/N1CCCCC1)CCCC3
  -1 | 102 | 107 | -18
Cc1cccc(NC(=O)CSC2=NS(=O)(=O)c3ccccc32)c1C
  -53 | 100 | 96 | 31
Cc1cccc(C(CC(=O)N2CCN(c3ccccc3F)CC2)n2cccc2)c1 (configuration not stated)
  -12 | 101 | 102 | 7
O=C(Cn1c(SCc2ccc(F)cc2)nc2cccnc21)N1CCCC1
  -16 | 105 | 101 | 134
COC(=O)c1sccc1-c1ccc(C2C3=C(CCCC3=O)NC3=C2C(=O)CCC3)o1
  22 | 102 | 102 | 3
C=CCn1c(=O)sc2cc(Br)ccc21
  -2 | 100 | 99 | 6
COc1ccc(OC)c2sc(N3CCN(C(=O)C(C)C)CC3)nc12
  -3 | 102 | 103 | -2
O=C(Oc1ccccc1Cl)C1COc2ccccc2O1 (configuration not stated)
  -2 | 102 | 102 | -8
Cn1nnnc1Sc1nc(-c2ccccc2)nc2ccccc12
  -31 | 102 | 107 | -8
Cc1cc(=O)oc2cc(NC(=S)NCc3cc(C)n(C)n3)ccc12
  -27 | 102 | 99 | 59
Cc1cc(C(=O)O)c(Cl)nc1C
  -21 | 102 | 101 | -1
N#Cc1c(Nc2ccc(Cl)cc2)n[nH]c1N
  14 | 97 | 100 | -4
CN(C)CC(C)(C)NS(=O)(=O)c1ccccc1
  / | 99 | 94 | -15
Nc1nc(N)nc(SCC(=O)N2CCCC2)n1
  2 | 102 | 107 | 0
CCCn1c(Nc2ccccc2)nc2ccccc21
  -9 | 99 | 104 | -55
Cc1cc2c(cc3c(SCC(=O)NCc4ccco4)nncn32)o1
  2 | 98 | 101 | 24
COCCNS(=O)(=O)c1c[nH]c(C(=O)OC)c1
  2 | 99 | 100 | -15
CCc1ccccc1NS(=O)(=O)c1ccc2[nH]cc(C(=O)NC(C)CC)c(=O)c2c1 (configuration not stated)
  -16 | 100 | 100 | -2
Cc1cc(F)ccc1S(=O)(=O)Nc1ccccc1C(=O)N1CCCCC1
  -16 | 106 | 109 | -20

(listing goes on)
SMILES | MenB inh | Polio RdRp inh | Polio RdRp inh intensity | MbtI inh
COc1ccc(NC(=S)NCCCO)c(OC)c1 | -5 | 101 | 103 | 9
O=C(CCCSc1cccc[n+]1[O-])c1ccc(F)cc1 | -14 | 103 | 107 | 99*
CC(OC(=O)c1ccncc1)C(=O)Nc1cc(C(F)(F)F)ccc1Cl (configuration not stated) | / | 104 | 105 | -13
CCNC(=S)Nc1ccc(F)cc1 | -10 | 104 | 119 | /
C/C(=N\n1cnnc1)c1ccc(-n2cnnn2)cc1 | 9 | 100 | 106 | /
NNC(=O)Cn1nnc(N2CCCC2)n1 | -16 | 108 | 111 | -8
COC(=O)Nc1nc2ccc(OC)cc2[nH]1 | -24 | 101 | 103 | 6
CCCN1CCC(Nc2ccc3c(c2)CCC3)CC1 | -9 | 100 | 100 | -10
CC1CCCC(C)N1C(=O)c1cc2c(s1)-c1ccccc1OC2 (configuration not stated) | -11 | 101 | 104 | 37
Nc1nc(S(=O)(=O)c2ccccc2)c(Cl)s1 | -5 | 102 | 104 | /
CCN(CC)c1ccc2cc(C(=O)Nc3ccc(C)cc3)c(=N)oc2c1 | -9 | 98 | 182 | 0
CN(C)c1nc(SCC#N)nc(N(C)C)n1 | -18 | 103 | 102 | -5
CO[C@@]1(NC(=O)CSCC#N)C(=O)N2C(C(=O)O)=C(CSc3nnnn3C)CS[C@@H]21 | -2 | 100 | 99 | -7
Cc1ccc(S(=O)(=O)NC(=O)c2nnc(-c3ccc(F)cc3)o2)cc1 | -13 | 102 | 95 | -9
COc1ccc(C=Nc2ccc3[nH]ncc3c2)c(O)c1 | -44 | 105 | 104 | i
Cn1c(=O)c2c(nc(N3CCN(c4ccccc4)CC3)n2CCSc2nnnn2-c2ccccc2)n(C)c1=O | -3 | 100 | 101 | 4
Nc1ccc(CN2C(=O)c3ccccc3C2=O)cc1 | -22 | 100 | 100 | -5
O=C(Nc1ccc(C2=NCCO2)cc1)c1ccc(C(F)(F)F)cc1 | -2 | 107 | 109 | 2
CN(Cc1ccccc1)C(=O)CCn1ccc2cc(S(=O)(=O)N3CCCCC3)ccc21 | -41 | 104 | 103 | 175
O=C(O)CCn1c(=S)n(CCC(=O)O)c2ccccc21 | 1 | 104 | 102 | 16
CC1CN(C(=O)c2ccc(C(=O)c3ccccc3)cc2)CC(C)O1 (configuration not stated) | / | 107 | 101 | -11
CCC(Oc1ccccc1-c1nnc(-c2ccccc2)o1)C(=O)N1CCCC1 (configuration not stated) | -10 | 101 | 101 | 128
COc1ccc(C2=C(CC(=O)O)C(=O)CC2)cc1 | -14 | 101 | 101 | /
O=C(OCc1ccc(Cl)cc1)c1cc(=O)c2ccccc2o1 | / | 97 | 91 | 3
CC(=O)N/N=C/c1cc2ccccc2nc1Cl | -13 | 102 | 104 | 53

Carrying on:
SMILES | MenB inh | Polio RdRp inh | Polio RdRp inh intensity | MbtI inh
CCCS(=O)(=O)c1ccc(NC(=O)Nc2ccc(Cl)cc2Cl)cc1 | -21 | 106 | 99 | -12
N=c1oc2ccccc2oc1=N | -46 | 102 | 105 | 16
CCCc1nc2cc3sc(CCC)nc3cc2s1 | 7 | 100 | 103 | -4
Nn1c(SCC(=O)c2ccc(Cl)cc2)nc2ccccc2c1=O | 7 | 102 | 104 | 20
C=CCN1C(=O)CCNc2ccccc21 | 0 | 103 | 102 | /
CCOC(=O)c1c(N2CCCC2=O)sc(C)c1CC | 1 | 103 | 107 | 40
COC(=O)c1c(C)oc2ccc(OC(=O)c3ccc(OC)cc3)cc12 | -5 | 102 | 103 | -9
CC1CCN(C(=O)c2ccc(-c3nn(C)c(=O)c4ccccc34)cc2)CC1 | -15 | 101 | 99 | 8
Cn1ccnc1C(=O)c1cc(Sc2ncccc2C#N)nc2ccccc12 | 15 | 99 | 106 | 3
Cc1cccc(N2CCNCC2)c1 | 2 | 99 | 101 | -2
CC(C)c1ccc(S(=O)(=O)Nc2cc3c4c(oc3c3ccccc23)CCCC4)cc1 | -27 | 101 | 102 | 37
Cc1ccc(C(=O)CC(SC2CCCCC2)C(=O)O)cc1 (configuration not stated) | -11 | 101 | 106 | /
COc1cc(OC)c(NC2c3ncccc3C(=O)N2Cc2cccs2)cc1Cl (configuration not stated) | -8 | 102 | 106 | -9
COc1ccc(CCC(=O)NC2CCC(C)CC2)cc1 (configuration not stated) | -19 | 99 | 92 | -4
Nc1c(C(=O)c2ccc(Cl)cc2)oc2nc(-c3ccco3)cc(-c3cccs3)c12 | 14 | 117 | 177 | -8
Cc1ccc(/C=C2\N=C(c3ccccc3)OC2=O)o1 | / | 101 | 103 | -7
CC(=O)ON=C1CC(C)(C)NC(C)(C)C1 | 6 | 98 | 102 | 22
O=C(Nc1cccc(C(=O)N2CCN(c3ccccc3)CC2)c1)C1=CSCCO1 | -33 | 102 | 102 | -5
COC(=O)c1c(O)cc(=O)n2c1CCC2 | -96 | / | / | 1
CN1C(=O)c2ccccc2Sc2ccc(NC(=O)N3CCCCC3)cc21 | 9 | 100 | 102 | -17
O=C(Cn1nnc(-c2ccccc2F)n1)NCc1ccc2c(c1)OCO2 | -20 | 117 | 112 | /
O=C(COC(=O)c1n[nH]c2ccccc12)Nc1ccc(S(=O)(=O)N2CCCC2)cc1 | -9 | 106 | 111 | 3
Cc1cc(=O)oc2cc(OCC(=O)OCC(=O)Nc3ccc4c(c3)OCCO4)ccc12 | -16 | 107 | 104 | 108
CN1CC[n+]2cnc3ccccc3c21 | -12 | 103 | 103 | i
C(=N\c1nc2ccccc2[nH]1)/c1ccc2c(c1)OCO2 | -36 | 98 | 104 | -10

New compounds follow
SMILES | MenB inh | Polio RdRp inh | Polio RdRp inh intensity | MbtI inh
O=S(=O)(c1ccc2c(c1)OCCO2)N1CCCC1c1cccs1 (configuration not stated) | -21 | 103 | 111 | -5
Cc1ccc(-n2c(C)cc(C=C3C(=O)NC(=O)NC3=O)c2C)cc1 | 2 | 85 | 136 | -1
COC(=O)COc1ccc(C)cc1C(C)(C)C | -16 | 104 | 101 | -7
CC1CN(S(=O)(=O)c2ccc(NC(=O)C(C)Oc3ccc(F)cc3)cc2)CC(C)O1 (configuration not stated) | -22 | 100 | 100 | -3
O=c1oc2ccc3ccccc3c2cc1-c1nc(-c2ccccc2F)no1 | 4 | 104 | 101 | 63
CSc1nsc(SC)c1NC(=O)Nc1ccccn1 | -4 | 102 | 101 | /
Cc1occc1-c1nnc(SCCCC(=O)N2CCOCC2)n1-c1ccccc1 | -4 | 103 | 107 | -3
O=C(c1snc2ccc(Cl)cc12)N1CCc2ccccc2C1 | / | 102 | 108 | 4
CCC(=O)c1ccc(OCC(=O)OC(C)C(=O)Nc2ccc3c(c2)OCO3)cc1 (configuration not stated) | -19 | 101 | 100 | -5
Cn1c(O)c(/C=N/N2CCOCC2)c2ccccc21 | 10 | 104 | 106 | -4
CCN1CCN(C(=O)c2ccc(/C=C3/Sc4ccccc4N(Cc4ccccc4C)C3=O)cc2)CC1 | -10 | 107 | 98 | 2
CCOC(=O)c1ccc2nsnc2c1 | -39 | 100 | 101 | 25
Cc1cn(C2CC3OCC3O2)c(=O)[nH]c1=O (configuration not stated) | 12 | 103 | 102 | -5
O=C(NCc1ccncc1)c1cccs1 | -5 | 100 | 104 | -3
N#CC1=C(O)Cn2c1nc1ccc(Br)cc1c2=O | -61 | 105 | 109 | 11
O=C1CCC(C(=O)Nc2ccccc2)=NN1 | 3 | 101 | 103 | 10
O=C(COC(=O)c1ccc(CS(=O)(=O)c2ccccc2)o1)c1ccc[nH]1 | -25 | 106 | 111 | -18
Brc1ccc(NCc2c[nH]c3ccccc23)cc1 | -23 | 121 | 129 | /
Cc1csc(N(C(=O)c2ccccc2)c2ccccc2)n1 | -25 | 99 | 102 | -7
O=C(O)c1cc2c(s1)CCCC2 | / | 100 | 103 | 9
CC(NCc1ccccc1)C1CC1 (configuration not stated) | / | 104 | 104 | -7
N#Cc1ccc(COC(=O)CSc2nnc(C3CCCCC3)n2N)cc1 | -27 | 106 | 106 | -13
